Source: PubChem BioAssay
Cruzain noTriton = blocks cruzain activity in detergent-free assay. P25779. purified cruzain, Z-FR-AMC fluorescence, no detergent. Potency, µM, for inactives: max response, negative = inhibition, usual class: inhibitors. 200,000 tested, 2.3% active; active = well fitted curve in the direction sought with a large enough effect; inconclusive = small, poorly fitted or top-dose-only effect, or another doubt; inactive = no such curve, though single readings can be large; an effect the other way counts as inactive or inconclusive;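 note: plate controls were enzyme without inhibitor for no effect and buffer without enzyme for full effect; nearly all actives have a fitted effect of over 40% in size; top concentration of the series not given in the record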
Target sequence (P25779 123-467 limits assumed): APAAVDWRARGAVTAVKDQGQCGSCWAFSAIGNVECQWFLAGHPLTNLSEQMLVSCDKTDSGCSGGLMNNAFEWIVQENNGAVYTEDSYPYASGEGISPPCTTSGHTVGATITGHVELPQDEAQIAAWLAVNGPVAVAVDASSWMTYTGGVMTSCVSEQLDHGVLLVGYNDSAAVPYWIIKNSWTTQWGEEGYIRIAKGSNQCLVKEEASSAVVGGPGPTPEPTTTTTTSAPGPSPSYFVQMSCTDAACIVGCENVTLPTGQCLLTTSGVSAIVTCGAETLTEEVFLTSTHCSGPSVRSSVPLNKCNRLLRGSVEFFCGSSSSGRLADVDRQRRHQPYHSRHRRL
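Purified cruzain at 1.5 nM, pre-incubated 15 min with compound at room temperature in 100 mM sodium acetate pH 5.5, 5 mM DTT, 0.00005% Triton X-100. Reaction started with 2 uM Z-FR-AMC; AMC fluorescence increase over 60 s gives rate.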
MARV entry inh = Marburg virus entry inhibition | Marburg virus pseudotyped entry inhibition, cell reporter; control for the full effect not named in the record; about a third of the inactives were read at about 46 µM | AID 540276 | 300,000 tested, 1.8% active | Potency, µM (top dose mostly 37.8 µM), without a hit: at the top dose activity change, negative = inhibition, actives largely listed as inhibitors; active = well fitted inhibition curve with a large enough effect; inconclusive = small, poorly fitted or top-dose-only effect, or effect the other way; inactive = flat fitted curve, though single readings scatter; tested in HEK293 cells; about a fifth of its hits are not listed in these tables; note: % is set by controls: 0 for no effect and ±100 for the full control effect; luciferase read-out
NS1 function inh = influenza NS1 inhibition | S. cerevisiae slowed by influenza A NS1, growth recovery by OD600 | Potency, µM (doses to about 46.1 µM), for the others: at the top dose activity, positive = more growth | AID 2326 | 270,000 tested, 0.4% active; note: actives are rising curves; nearly all actives have a fitted effect of over 50% in size
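S. cerevisiae expressing influenza A NS1, grown in glucose, washed, then diluted 1:100 into pH 6.0 -URA galactose medium with 23 nl compound. Growth recovery read as OD600; NS1-free strain serves as control.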
Cruzain inh Det = blocks cruzain activity in presence of Triton detergent; 200,000 tested, 0.43% active; Potency, µM, inactives show max response, negative = inhibition, hits mostly inhibitors; P25779; AID 1478; purified cruzain, Z-FR-AMC fluorescence, 0.01% Triton; active = well fitted curve in the direction sought with a large enough effect; inconclusive = small, poorly fitted or top-dose-only effect, or another doubt; inactive = no such curve, though single readings can be large; an effect the other way counts as inactive or inconclusive;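 note: plate controls were neutral wells for no effect and buffer without enzyme for full effect; nearly all actives have a fitted effect of over 40% in size; top concentration of the series not given in the record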
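In this qHTS format, compounds are incubated with 1.5 nM cruzain for 15 min at room temperature before 2 uM Z-FR-AMC is added. Release of AMC is followed at 360/450 nm, and progress is taken as the 60 s fluorescence difference.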
2A StopGo = lowers the luciferase signal of an FMDV 2A StopGo reporter; human cells with a luciferase reporter of 2A StopGo recoding; control for the full effect not named in the record; Potency, µM (titrated, usually from 57.9 µM), for inactives: top-dose signal change, negative = less light; 410,000 tested, 1.2% active; active = well fitted falling curve with a large enough effect; inconclusive = small, poorly fitted or top-dose-only effect; inactive = no such curve, though single readings can be large or run the other way; tested in HEK293T cells; note: % is set by controls: 0 for no effect and ±100 for the full control effect; nearly all actives have a fitted effect of over 45% in size; luciferase light after 4 h
SARS PLpro yeast = SARS-CoV PLP inhibition in yeast; Potency, µM (series often up to 32.9 µM), inactives show at the highest dose activity, positive = growth rescue; AID 485353; S. cerevisiae expressing SARS-CoV PLpro, growth rescue; control for the full effect not named in the record; 330,000 tested, 0.19% active; note: 0% is about no effect; nearly all actives have a fitted effect of over 55% in size; growth read by luminescence after 48 h
RE007 growth inh = less growth of the S. pombe RE007 Vpr strain; S. pombe RE007 Vpr strain, BacTiter-Glo ATP luminescence, 24 h; control for the full effect not named in the record; Potency, µM (highest dose often 92.2 µM), for inactives: top-dose activity change, negative = less growth; AID 651644; 360,000 tested, 0.21% active; active = well fitted falling curve with a large enough effect; inconclusive = small, poorly fitted or top-dose-only effect; inactive = no such curve, though single readings can be large or run the other way;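 note: % is set by controls: 0 for no effect and ±100 for the full control effect; nearly all actives have a fitted effect of over 50% in size; the assay follows cell death caused by Vpr and the record does not say whether a fall means rescue or toxicity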
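Fission yeast RE007 carrying one integrated HIV-1 vpr copy, seeded at OD 0.01 in PMG+AL medium with 23 nL pinned compound. Grown 24 h at 30 degrees; viability read by BacTiter-Glo luminescence after 5 min.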
Lassa entry inh = Lassa virus entry inhibition; Potency, µM (doses to about 37.9 µM), for inactives: top-dose activity change, negative = inhibition, hits mostly inhibitors; 300,000 tested, 1.2% active; Lassa virus pseudotype entry inhibition, cell reporter; control for the full effect not named in the record; AID 540256; active means well fitted inhibition curve with a large enough effect; inconclusive means small, poorly fitted or top-dose-only effect, or effect the other way; inactive means flat fitted curve, though single readings scatter; tested in HEK293 cells; note: % is set by controls: 0 for no effect and ±100 for the full control effect; nearly all actives have a fitted effect of over 50% in size; luciferase read-out
Starred values were filed as active, the others as inactive; ? = inconclusive; · = no result given; & = joins results of further samples; [ ] = remark or other dose. Unless noted, calls come from the whole dose curve; as a rule, active means well fitted rising curve with a large enough effect; inconclusive means small, poorly fitted or top-dose-only effect; inactive means no such curve, though single readings can be large or run the other way. Potency is the fitted concentration of half-maximal effect.

smiles,Cruzain noTriton,MARV entry inh,NS1 function inh,Cruzain inh Det,2A StopGo,SARS PLpro yeast,RE007 growth inh,Lassa entry inh
Cc1ccc(-n2cc(CN(C)Cc3nccn3C)c(-c3ccc(F)cc3)n2)cc1,·,?,1%,·,-13%,0%,4%,?
CC(C)OC(=O)CSc1nnc(CNc2nc(-c3ccccc3)cs2)n1C,9%,16%,-1%,0.4%,-5%,3%,-17%,-10%
O=S(=O)(NNc1ncc(C(F)(F)F)cc1Cl)c1ccccc1,·,2%,·,·,121%[activator],19%,2%,8%
O=C(NCc1ccccc1)C(c1cccnc1)N(C(=O)c1csnn1)c1ccc(F)cc1 (stereo not given),·,-2%[46.1 µM],-16%,·,8%,1%,10%,13%[46.1 µM]
Cc1cc(OCC(=O)Nc2ccc3oc(-c4ccncc4)nc3c2)ccc1Cl,-7%,-33%&-33%,3%,-6.7%,-13%,·,1%[3.69 µM],-6%
NC(N)=N/N=C(\N=Nc1ccccc1)c1ccc(Cl)cc1,·,?,·,·,9%,·,4%,16µM*
O=C(Nc1ccc(Br)cn1)c1cccc(-c2cc3ccccc3oc2=O)c1,?,?,13%,-12%,-34%,20%,2%,?
O=C(NCCc1ccncc1)C12CC3CC(CC(C3)C1)C2,5%,17%,-1%,0.5%,11%,-7%,3%,15%
CCN(c1ccc(OC)cc1)S(=O)(=O)c1cc(-c2cc(C)no2)ccc1C(C)C,·,·,24%,·,-13%,23%,-2%,·
COc1ccc(OC)c(C(=O)c2coc3ccc(OC(C)=O)cc23)c1,-4%,?,-5%,-4.2%,12%,30%,9%,11µM*
Cc1cccc(Nc2nc3c(c(=O)n(C)c(=O)n3C)n2Cc2ccccc2)c1,2%,1%,4%,-1.4%,-11%,5%,25%,-2%
COc1cc(/C=N/NC(=O)c2cc(-c3ccccc3)sc2N)cc(OC)c1OC,·,?,5%,·,-25%,1%,4%,16µM*
C=CCSc1nc(N)c2c(C)c(C)sc2n1,?,?,-13%,-2.2%,45%[activator],4%,-11%,14%
CC(=O)Nc1ccc(S(=O)(=O)N2CCN(Cc3ccccc3[N+](=O)[O-])CC2)cc1,·,7%[46.1 µM],-7%,·,?,-7%,-14%,-30%
CCc1cc(C(=O)N2CCc3c([nH]c4ccccc34)C2c2ccc(OC)cc2F)no1 (stereo not given),·,0.89µM*,9%,·,14%,1%,30%,?
COc1cc([N+](=O)[O-])ccc1NC(=O)CC(C)C,-4%,0%,-12%,-3.4%,-20%,-2%,-6%,-2%
CCc1ccc(NS(=O)(=O)c2ccc3c(c2)CCN3C(=O)CCC(=O)O)cc1,·,?,5%,·,3%,-1%,-9%,-19%[46.1 µM]
COc1ccc(CC2C(=O)NC(C)C(=O)N(C)C3C(=O)N(C)C(Cc4ccc(O)c(c4)Oc4ccc(cc4)C3O)C(=O)NC(C)C(=O)NC(C)C(=O)N2C)cc1 (stereo not given),·,?,·,·,?,·,2%,?
CCOc1[nH]n(-c2ccccc2)c(=O)c1C=Nc1ccc(Cl)cc1,-3%,9%,-4%,-2.0%,27%,-5%,-3%,-7%
CCCOn1nnnc1-c1ccccc1,13%,-3%,2%,0.1%,7%,-2%,-5%,?
Cc1cc2oc(C(=O)Nc3ccc(S(=O)(=O)N4CCC(C)CC4)cc3)cc(=O)c2cc1C,7%,21%[46.1 µM],·,0.4%,-19%,·,·,4%[46.1 µM]
CC(=O)Nc1ccc(NC(=O)CSc2ccc(C(F)(F)F)cc2[N+](=O)[O-])cc1,1%,4%[46.1 µM],5%,0.6%,-11%,-8%,4%,-9%
CCOC(=O)c1c(-c2ccc(C)o2)csc1NC(=S)NC(=O)c1ccccc1Br,32µM*,-18%,?,-3.0%,-6%,-3%,-1%,26%[14.3 µM]
CCOC(=O)C1=C(N)N(c2ccccc2Oc2ccccc2)C(=O)C1,-1%,-11%,-59%,0.3%,-12%,-1%,0%,1%
O=C(Nc1ccc(F)cc1F)c1csc(-c2ccncc2)n1,·,?,-1%,·,18%,-1%,-6%,?
Cc1ccc(CNC(=O)C(C)n2nc(C)n3c(cc4sccc43)c2=O)cc1 (stereo not given),0%,-9%[46.1 µM],·,0.0%,-11%,·,·,·
COCCNC(=O)C(=O)NCCN1CCNCC1,·,4%[46.1 µM],8%,·,5%,1%,12%,17%[46.1 µM]
CCOC(=O)C1(Cc2cccc(Cl)c2)CCCN(C(=O)CN2C(=O)CSC2=O)C1 (stereo not given),·,·,-6%,·,14%,0%,-3%,·
CC(=O)N1CCc2c(sc(NC(=O)CSc3ccc(C)cc3)c2-c2nc3ccccc3s2)C1,-22%,·,·,-0.3%,-2%,·,·,?
O=C(Nc1cccc(F)c1)C1CCCN1C(=O)OCc1ccccc1 (stereo not given),·,24%[46.1 µM],12%,·,7%,2%,6%,0%[46.1 µM]

Record cards, from the list above:
Cc1cc(OCC(=O)Nc2ccc3oc(-c4ccncc4)nc3c2)ccc1Cl as listed: Cruzain noTriton: -7%; MARV entry inh: -33%&-33%; NS1 function inh: 3%; Cruzain inh Det: -6.7%; 2A StopGo: -13%; SARS PLpro yeast: ·; RE007 growth inh: 1%[3.69 µM]; Lassa entry inh: -6%
COc1ccc(CC2C(=O)NC(C)C(=O)N(C)C3C(=O)N(C)C(Cc4ccc(O)c(c4)Oc4ccc(cc4)C3O)C(=O)NC(C)C(=O)NC(C)C(=O)N2C)cc1 (stereo not given) as listed: Cruzain noTriton: ·; MARV entry inh: ?; NS1 function inh: ·; Cruzain inh Det: ·; 2A StopGo: ?; SARS PLpro yeast: ·; RE007 growth inh: 2%; Lassa entry inh: ?

Remaining list, next part:
smiles,Cruzain noTriton,MARV entry inh,NS1 function inh,Cruzain inh Det,2A StopGo,SARS PLpro yeast,RE007 growth inh,Lassa entry inh
COc1ccc(Oc2cnn(-c3ccccc3)c(=O)c2Br)cc1,·,?,-3%,·,-9%,-1%,-18%,?
COc1cccc(N2CCN(C(=O)CCc3nnc4ccc(N5CCCC5)nn34)CC2)c1,·,-9%[46.1 µM],23%,·,13%,0%,-14%,-13%[46.1 µM]
COc1ccc(-c2c(C)n([O-])c(C)c(C)[n+]2=O)cc1,-13%,0%,4%,3.5%,-21%,15%,-12%,-4%
O=C(COC(=O)c1ccc(Cl)nc1)NCCNC(=O)COC(=O)c1ccc(Cl)nc1,·,0%,·,·,0%,0%,-13%,-20%
COc1ccc(NC(=O)COC(=O)c2cnccn2)cc1Cl,-13%,17%[46.1 µM],8%,2.7%,-2%,-12%,16%,21%
CC(C)(O)C#Cc1ccc(C(=O)Nc2ccc3c(c2)OCO3)s1,·,?,?,·,19%,5%,9%,?
CCOC(=O)N1CCC(n2c(SCC(=O)NCCc3ccc(S(N)(=O)=O)cc3)nc3ccccc3c2=O)CC1,·,-7%[46.1 µM],·,·,1%,1%,-12%,10%
c1ccc(-c2csc3ncnc(NCC4COc5ccccc5O4)c23)cc1 (stereo not given),-25%,2.2µM*,2%,-5.9%,28µM*,4%,-11%,?
CC(C)(C)NC(=O)C1CCC(CNc2c(N3CCCCC3)c(=O)c2=O)CC1 (stereo not given),·,1%[46.1 µM],-2%,·,-28%,0%,6%,28%[46.1 µM]
O=C(NCCc1ccccc1)C1CCN(S(=O)(=O)c2ccc(Br)s2)CC1,-7%,15%,-13%,1.1%,-1%,-2%,-1%,8%
CC1=NNC(=O)/C1=C\c1cn(-c2ccccc2)nc1-c1ccc(F)cc1,·,8.9µM*,-2%,·,11µM*,-5%,2%,?
COc1cccc(NC(=O)CSc2nc(=O)n(Cc3ccncc3)c3c2CCCC3)c1,·,1%,·,·,-19%,-7%,7%,-3%
O=C(CSc1nnnn1-c1ccc2c(c1)OCO2)NCc1cccs1,-7%,36%,-1%,1.9%,0%,0%,-10%,-19%
Cc1cc(C)cc(NC(=O)c2ccc3nc[nH]c3c2)c1,3%,-32%,7%,-1.4%,53%[activator],9%,0%,4%
CC(C)NC(=O)Cn1nc(N2CCN(c3ccccc3)CC2)ccc1=O,-15%,·,·,-2.0%,-13%,·,·,-1%[46.1 µM]
Cc1ccc(OCCNCc2ccccc2)c(C)c1,·,-1%,13%,·,25%,0%,-8%,1%
CC(C)(C)c1ccc(/C=C/C(=O)NCCCN2CCOCC2)cc1,·,?,7%,·,-7%,-2%,-11%,-6%
O=C(CCc1nnc2ccc(N3CCC4(CC3)OCCO4)nn12)N1CCCCC1,·,24%[46.1 µM],-3%,·,26%,-2%,-11%,8%[46.1 µM]
CC(NCc1cccs1)C(=O)NC1CCCCC1 (stereo not given),·,0%[46.1 µM],·,·,-10%,1%,7%,?
COc1ccc(C2=NN(c3ccccc3)C(c3cn(CCC(=O)O)nc3-c3ccccc3)C2)cc1 (stereo not given),·,4%[46.1 µM],·,·,11%,0%,35%,-3%
Cc1nn(C)c(C)c1CNC(=O)c1nn2c(c1Cl)NC(c1cccs1)CC2C(F)(F)F (stereo not given),?,?,0%,-2.8%,·,-2%,-5%,-22%
O=C(CNC(=O)c1cccs1)OCC(=O)c1ccccc1,-5%,?,2%,-8.9%,10%,4%,0%,-3%
Cc1ccc(CNC(=O)C2CCCN(S(=O)(=O)N3CCC(C)CC3)C2)cc1 (stereo not given),·,-19%[46.1 µM],-3%,·,3%,6%,0%,-16%[46.1 µM]
Nc1nnc(-c2cccnc2)s1,2%,-25%&-25%,1%&3%,9.5%,18%,4%&0%,5%,16%
